YopH inh: YopH tyrosine phosphatase inhibitors, primary screen, biochemical, fluorescence Ex485/Em525. YopH tyrosine phosphatase [Yersinia enterocolitica]. inhibition, %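 (about 10 µM by stock and volumes)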. 0.16% of 140,000 active. AID 898, 2007;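 active = inhibition of 50% or more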;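 note: controls were vehicle for no effect and minimum signal wells for full effect; inactives centre near -20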
Mtb H37Rv: M. tuberculosis H37Rv growth inhibitors, H37Rv strain (AID 1626). one-dose inhibition, % at 10 µM; IC50 in µM for titrated hits. M. tuberculosis H37Rv growth inhibition; higher % means a stronger effect. 0.95% of 220,000 active;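 active = confirmed in a dose series; inconclusive = inhibition above 80% but not taken into the dose series; inactive = below 80% or under 30% at every dose of the series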;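 note: bacteria incubated seven days before Alamar blue readout; 0% = bacteria only wells and 100% = bacteria with antibiotic wells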
Arbovirus anti: antivirals against arbovirus infection, primary screen, cell-based, full library, 10K replicate subset | arbovirus infection cell-based antiviral screen | inhibition, % at 10 µM | 0.37% of 200,000 active | AID 1251, 2008;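 active = inhibition from about 30%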;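 note: bluetongue infection of BSR cells; cell survival read as ATP light after 72 h; 0% = infected wells without compound and 100% = uninfected wells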
RecA splice inh: Mtb RecA intein splicing inhibitors, primary screen, biochemical, fluorescence, HTS. cell-free RecA intein splicing. AID 2221, 2009. 0.75% of 290,000 active. Protein RecA (Mycobacterium tuberculosis (strain ATCC 25618 / H37Rv)), P9WHJ3. inhibition, %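 (about 9 µM by stock and volumes)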; in the data active = inhibition above about 30%; inconclusive = no clear call, values can overlap the other calls;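 note: 0% = vehicle wells and 100% = reference inhibitor control wells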
Target sequence (P9WHJ3 whole entry, looked up, canonical isoform): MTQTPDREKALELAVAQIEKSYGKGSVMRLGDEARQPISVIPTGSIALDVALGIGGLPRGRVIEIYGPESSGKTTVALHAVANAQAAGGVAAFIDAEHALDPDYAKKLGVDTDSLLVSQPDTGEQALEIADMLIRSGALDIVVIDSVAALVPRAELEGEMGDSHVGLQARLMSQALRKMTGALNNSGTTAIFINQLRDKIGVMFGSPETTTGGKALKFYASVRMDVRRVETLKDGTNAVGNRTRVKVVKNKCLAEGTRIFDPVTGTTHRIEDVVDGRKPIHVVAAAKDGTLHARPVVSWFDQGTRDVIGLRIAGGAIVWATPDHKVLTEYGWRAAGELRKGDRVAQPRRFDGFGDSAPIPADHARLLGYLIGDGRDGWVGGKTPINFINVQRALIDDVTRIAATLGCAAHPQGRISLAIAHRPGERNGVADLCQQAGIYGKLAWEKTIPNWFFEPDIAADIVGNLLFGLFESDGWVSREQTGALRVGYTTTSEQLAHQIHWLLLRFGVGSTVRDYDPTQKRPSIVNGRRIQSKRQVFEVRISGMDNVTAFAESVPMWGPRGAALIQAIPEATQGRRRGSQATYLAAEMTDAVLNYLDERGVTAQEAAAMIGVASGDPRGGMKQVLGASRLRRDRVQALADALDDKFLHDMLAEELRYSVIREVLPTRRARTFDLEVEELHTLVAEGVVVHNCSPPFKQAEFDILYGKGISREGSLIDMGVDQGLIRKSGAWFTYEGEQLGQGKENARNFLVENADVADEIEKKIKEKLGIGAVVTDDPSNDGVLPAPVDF
Mtb betalactam: beta-lactam sensitization of Mtb H37Rv, H37Rv | inhibition, % at 25 µM | AID 434955, 2010 | 0.27% of 330,000 active | M. tuberculosis H37Rv growth with meropenem, percent inhibition; hits of this screen are not shown here;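 active = about 74% or more and at least 40 points above the plate without the antibiotic, then above 30% in a dose series; inconclusive = first-round hits that could not be retested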;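 note: growth measured after seven days incubation then overnight dye step; 0% = bacteria only wells and 100% = bacteria with antibiotic; twin plates without the antibiotic show which effects depend on it; some results filed as inactive read as strong as hits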
Arbovirus anti repeat: second read-out of Arbovirus anti, no call of its own (marks repeat the call); inhibition, %; measured here: 10K subset replicate screen; many hits read low in the repeat;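 first of two repeat runs on a subset; 0% = infected and 100% = uninfected wells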
An asterisk follows results filed as active; ? = inconclusive; nt = no result given.

SMILES	YopH inh	Mtb H37Rv	Arbovirus anti	RecA splice inh	Mtb betalactam	others
CCC(=O)Nc1cccc(NC(=S)NC(=O)c2ccc(Cl)cc2Cl)c1	-30	17%	-12	1.7	6
CCOc1cc(/C=N/NC(N)=O)cc(Br)c1OCC(=O)Nc1ccccc1C	-8	10%	2	nt	15
COC(=O)CCCCC(=O)C1C(=O)CC(C)(C)C(C(=O)OC)C1=O (centres undefined)	-39	-1%	6	12	2	Arbovirus anti repeat=5
CN(C)C(=O)N1CCN(C(=O)c2ccccc2Sc2ccccc2C#N)CC1	-54	0%	-8	-0.9	1
O=c1/c(=C/c2ccc(CNS(=O)(=O)c3ccccc3)o2)sc2n1CCN=2	-29	-5%	-2	0.0	0
COc1ccc(Cl)cc1C(=O)Nc1ccccc1N1CCCCC1	nt	nt	nt	6.3	89
Cc1ccc(C(=O)OC2CCN(c3ccc([N+](=O)[O-])cc3)CC2)cc1	-43	-8%	-7	-5.6	1
COCCCNC(=S)Nc1ccc(S(=O)(=O)Nc2cc(OC)nc(OC)n2)cc1	nt	nt	nt	1.0	-1
COc1ccc(-n2c(SCC(=O)Nc3ccc(C)cc3)nc(O)c(Cc3ccccc3)c2=O)cc1	nt	nt	nt	2.5	3
CCc1cc2c(=O)oc(-c3ccccc3F)nc2s1	nt	nt	nt	15	85
Cc1ccc(NC(=O)N2CCCC2C(=O)NCCc2ccccc2)cc1 (centres undefined)	-53	-2%	-5	-0.9	nt
O=C(Nc1ccc(N2CCOCC2)cc1)c1cccc(S(=O)(=O)N2CCCCC2)c1	-14	nt	-9	-0.2	nt
Cc1c(Cl)cccc1NC(=O)CC1SCCNC1=O (centres undefined)	-20	-3%	3	-2.0	9
CCN(C(=O)COC(=O)CNC(=O)c1ccc(C)c(C)c1)C1CCS(=O)(=O)C1 (centres undefined)	-16	-8%	3	-1.0	5
CC(CNC(=O)c1ccccc1Cl)c1ccccc1 (centres undefined)	nt	nt	nt	-7.1	5
Cc1cc(OC(C)C(=O)NC2CC(C)(C)NC(C)(C)C2)c2c(C)cc(=O)oc2c1 (centres undefined)	nt	nt	nt	-2.6	1
c1ccc(-c2ncc(CN3CCN(c4ccccn4)CC3)[nH]2)cc1	nt	-5%	nt	0.1	-8
CCCCN(C(=O)c1ccc2c(c1)OCO2)C1CCS(=O)(=O)C1 (centres undefined)	nt	nt	nt	2.1	-21
COC(=O)c1cnn2c(C)c(Cc3cccc(F)c3)c(C)nc12	-32	6%	-15	4.0	-8	Arbovirus anti repeat=-3
CNC(=O)c1ccc(-n2nc(C)cc2-c2ccccc2)cc1	0	-6%	-7	0.4	?
CCOc1cccc(CNCCSc2nnnn2C)c1	nt	-4%	1	11	7
c1ccc(CSC2=NNC(c3ccccn3)S2)cc1 (centres undefined)	nt	64%	nt	3.4	12
COc1ccccc1-c1cc(C(=O)Nc2cccnc2)no1	-30	nt	-1	2.8	2
Cc1ccccc1-c1cc2nc(C)c(C)c(=O)n2[nH]1	nt	nt	nt	-1.2	2
O=C(Nc1ccccc1C(F)(F)F)c1ncn[nH]1	nt	-3%	nt	-4.6	0
CCCC(=N)C1=C(O)CC(CC(C)SCC)CC1=O (centres undefined)	-32	-4%	7	-3.6	-21	Arbovirus anti repeat=2
O=[N+]([O-])c1cc(-c2ncccn2)cs1	-29	-8%	1	nt	1
O=C(Nc1c[nH]c(=O)[nH]c1=O)c1ccccc1Cl	nt	nt	nt	-0.5	3
CCCC(=O)Nc1cccc(NC(=O)c2ccc(C)c([N+](=O)[O-])c2)c1	2	0%	-1	4.5	-3
Fc1ccc(N2CCN(/C=C/c3nnnn3-c3ccccc3)CC2)cc1	-11	2%	-2	-3.6	5
Cn1c(=O)c2c(ncn2CC(=O)OCC(=O)Nc2ccccc2)n(C)c1=O	nt	8%	1	-2.3	-4
COc1ccc(S(=O)(=O)N2CCC(N3CCN(Cc4ccccc4)CC3)CC2)cc1	nt	2%	-1	0.6	-8
O=C(CCN1CCN(c2ccccc2F)CC1)Nc1ccccc1F	-47	-4%	-9	0.9	9
O=S(=O)(Nc1cccc(-c2nc3cccnc3s2)c1)c1cccs1	nt	-9%	nt	-0.4	2
COCCOC(=O)/C=C1/NC(=O)CS1	39	-6%	10	3.0	-8
CS(=O)(=O)N(CC(=O)Nc1ccc(F)cc1)C1CCCCC1	nt	nt	nt	-2.1	-3

Next section; the last 3 above are carried over.
SMILES	YopH inh	Mtb H37Rv	Arbovirus anti	RecA splice inh	Mtb betalactam	others
O=S(=O)(Nc1cccc(-c2nc3cccnc3s2)c1)c1cccs1	nt	-9%	nt	-0.4	2
COCCOC(=O)/C=C1/NC(=O)CS1	39	-6%	10	3.0	-8
CS(=O)(=O)N(CC(=O)Nc1ccc(F)cc1)C1CCCCC1	nt	nt	nt	-2.1	-3
Cc1ccc(NC(=O)CCC(=O)c2ccc(F)cc2)cc1Cl	-35	94%	1	1.4	99
COc1ccc(CCCc2nnc(SCC(=O)Nc3ccc(OC)cc3)o2)cc1	nt	-7%	-2	-3.1	1
O=C(CCc1nc2ccccc2c(=O)[nH]1)Nc1cccc(S(=O)(=O)N2CCCCC2)c1	nt	nt	nt	-3.0	-5
CCCOc1ccccc1C1NC(=O)NC(C)=C1C(=O)OCCOCC (centres undefined)	-30	2%	3	-1.2	-11
O=C(Nc1nc(C2C3CC4CC(C3)CC2C4)cs1)c1cc2cc([N+](=O)[O-])ccc2oc1=O (centres undefined)	-30	nt	13	-0.6	98
NS(=O)(=O)c1cccc(NC(=O)Cn2nc(C(=O)O)c3ccccc3c2=O)c1	nt	nt	nt	-0.9	5
COc1cc2c(cc1NC(=O)Nc1ccc(C)cc1)oc1ccccc12	6	18%	-13	0.9	2
Cc1ccc(CSCCNS(C)(=O)=O)cc1	14	-5%	1	3.0	?
Cc1ccc(NC(=S)NNc2ncc(C(F)(F)F)cc2Cl)cc1	-10	8%	-11	-2.9	-2
O=C(O)c1ccc(-n2nnnc2Oc2ccccc2C(=O)N2CCOCC2)cc1	-5	-9%	3	-6.2	2
O=C(Cn1cc2c(n1)CCCCC2)Nc1ccccc1Br	nt	4%	nt	3.3	-6
CC(C(=O)OCc1nnc(-c2ccccc2)o1)N1C(=O)C2CCCCC2C1=O (centres undefined)	nt	2%	1	2.3	-3

Nothing new here: 2 of the compounds above.
SMILES	YopH inh	Mtb H37Rv	Arbovirus anti	RecA splice inh	Mtb betalactam	others
O=C(Cn1cc2c(n1)CCCCC2)Nc1ccccc1Br	nt	4%	nt	3.3	-6
CC(C(=O)OCc1nnc(-c2ccccc2)o1)N1C(=O)C2CCCCC2C1=O (centres undefined)	nt	2%	1	2.3	-3

Next section
SMILES	YopH inh	Mtb H37Rv	Arbovirus anti	RecA splice inh	Mtb betalactam	others
CCS(=O)(=O)c1nc(S(=O)(=O)c2ccc(Cl)cc2)c(NCCN2CCOCC2)s1	nt	nt	nt	0.8	-7
CCN(CC)C(=O)n1cnc(-c2ccccc2)c1-c1ccccc1	-31	0%	-1	2.7	0
CCSCCc1nnc(NC(=O)Nc2cccc(C(F)(F)F)c2)s1	-28	78%	-14	3.0	91
CCCCN(C(=O)c1ccc2c(c1)OCO2)c1ccccc1	nt	5%	12	6.4	0
CC(c1ccco1)N(C(=O)c1cccs1)c1ccccn1 (centres undefined)	-36	-2%	-1	0.0	-8
Cc1ccc(C2=NN(C(=O)CCC(=O)O)C(c3ccc4c(c3)OCO4)C2)cc1 (centres undefined)	nt	nt	nt	-1.9	-16
COc1cccc(C(=O)Nc2cccc(-c3ccc4nncn4n3)c2)c1OC	nt	-4%	0	1.0	-1
COc1ccc(NC(=O)COC(=O)Cc2c[nH]c3ccccc23)cc1OC	nt	-13%	-1	-0.8	-8
Cc1cc(C)n(CC(=O)N2c3ccccc3Sc3ccccc32)n1	-6	-7%	-4	2.5	1
CCc1nnc(NS(=O)(=O)c2ccc(N/C=C\C(=O)c3cccc(OC)c3)cc2)s1	nt	8%	28	nt	85
Cc1nc(-c2coc3c(CN(C)C)c(O)ccc3c2=O)cs1	-23	-3%	16	-2.8	-7
CCc1ccccc1NC(=O)COc1ccc(C(=S)N2CCCC2)cc1	nt	-2%	-3	0.5	-2
COc1ccc(OC)c(-n2nnnc2SCC(=O)NCCc2ccccc2)c1	-20	-2%	-10	6.3	-1
CCOc1ccc(S(=O)(=O)N2CCN(C(=O)c3cccn3C)CC2)cc1	5	nt	1	-0.6	-8
C/C(=N\NC(=O)C1CCCN(S(=O)(=O)c2ccccc2)C1)c1cccnc1 (centres undefined)	-21	3%	9	-2.8	0
Cc1ccc(-c2cc(C(F)(F)F)n3ncc(C(=O)N4CCCc5ccccc54)c3n2)cc1	-18	-6%	12	-1.5	3
CC(C)N(CCO)C(=O)CCc1nnc(Cc2cccc(C(F)(F)F)c2)o1	nt	4%	5	0.6	8
O=C(Nc1ccccc1N1CCCCC1)c1ccccc1F	-36	7%	-19	22	25
CCCc1nc(Cl)c(C#N)c2c1CCCC2	-20	15%	29	-0.1	-3
O=[N+]([O-])c1cccc(/C=C2\CCC(/C=N/Nc3ccc4ccccc4n3)=C2N2CCOCC2)c1	-18	-11%	0	1.9	2
C=Cn1ccnc1P(=S)(c1ccc(Cl)cc1)c1nccn1C=C	nt	6%	7	1.9	3
COc1cccc(C(=O)NC(=S)Nc2ccc3oc(=O)ccc3c2)c1	-28	2%	-8	0.9	-4
C/C(=N\O)c1ccccc1C(=O)O	-33	1%	-4	-1.3	-6
Cc1ccccc1CNC(=O)c1ccc2nc(N3CCOCC3)sc2c1	nt	nt	nt	-1.2	6
Cc1cccc(-c2nnc(SCc3nc4ccccc4[nH]3)n2Cc2ccco2)c1	-35	4%	-3	3.2	-7
CC(=O)c1cccc(N=Nc2c(-c3ccccc3)[nH]n(-c3ccccc3)c2=O)c1	nt	77%	4	-0.2	7
Cc1cc(C(=O)N2CCN(c3ccccc3O)CC2)c(C)o1	nt	nt	nt	-5.3	-1
N#Cc1c(NC(=O)CSc2n[nH]c(Cc3ccccc3)n2)oc(-c2ccccc2)c1-c1ccccc1	-38	3%	-25	12	1
Cc1cc(C(=O)Nc2cc(Br)ccc2O)on1	nt	nt	nt	1.6	7
COC(=O)[C@@H]1CCCN1C(=O)c1ccc(OC2CCN(Cc3ccccn3)CC2)cc1	nt	nt	nt	2.5	-4
O=C(CCNS(=O)(=O)c1ccccc1)N1CCCCCCC1	nt	nt	nt	-1.5	1
COc1ccc(OC)c(S(=O)(=O)N2CCCC2C(=O)N2CCc3ccccc3C2)c1 (centres undefined)	nt	nt	nt	-1.8	-2
Cc1ccccc1OCCN(C#N)c1nc(N(C)C)nc(N(C)C)n1	nt	15%	-3	9.7	-4
Cc1cc(C)n(-c2ccc(C(=O)Nc3cccc(S(=O)(=O)N4CCCC4)c3)cc2)n1	nt	6%	-1	0.1	1
Cc1ccc(OCc2ccoc2C(=O)O)cc1C	-2	9%	8	1.0	3
CCOC(=O)CN1C(=O)S/C(=C\c2ccc3c(c2)OCO3)C1=O	nt	nt	nt	6.9	4
CCSc1nnc(NC(=O)c2ccc(C)cc2)s1	-4	2%	33*	2.4	4
C/C(=N\Nc1nc2c(s1)CCCC2)c1ccccc1	8	5%	-30	4.9	97
Cc1nc(N2CCN(c3ccccc3)CC2)[nH]c(=O)c1C	nt	nt	nt	-1.9	-9
CCc1nnnn1-c1ccc([N+](=O)[O-])cc1C	nt	-10%	1	-0.4	-5
CCOc1ccc(C(=O)NCC(=O)NCC(c2ccc(OC)cc2)N2CCCC2)cc1 (centres undefined)	nt	nt	nt	-0.5	-8
Cc1cc(C)c2nc3s/c(=C/c4ccc5c(c4)n(C)c(=O)n5C)c(=O)n3c2c1	-12	nt	12	-0.1	nt
CCOC(=O)C1CCN(C(=O)c2ccc(OCC(=O)Nc3ccc(OCC)cc3)c(OC)c2)CC1	nt	nt	nt	2.7	18
CCc1nnc(NC(=O)CCCSc2nc3ccccc3[nH]2)s1	nt	5%	7	0.7	-9
COc1cc(/C=C2\NC(=S)N(C)C2=O)ccc1OCc1cccc(F)c1	nt	nt	nt	-3.1	53
O=C(NCc1cccs1)c1ccc(S(=O)(=O)N2CCOCC2)cc1	nt	-6%	-5	1.5	-6
COc1ccc(NC(=S)N2CCC(C(=O)c3ccc(C)cc3)CC2)cc1	nt	nt	nt	2.5	0
O=C(Nc1ccccc1Cl)c1cc(S(=O)(=O)N2CCCC(C(=O)O)C2)ccc1F (centres undefined)	-18	-7%	5	0.4	-6
Cc1ccc(CCNC(=O)c2nnc(CS(=O)(=O)c3ccccc3)o2)cc1	nt	nt	nt	0.4	4

An excerpt. The share of hits here may be higher or lower than overall.
